# Bioassay records as filed in PubChem.
# PINK1 expr mod – modulators of PINK1 expression; Potency, µM (series often up to 76.6 µM), inactives show at the top dose activation (PINK1 increase), hits mostly activators; PINK1 immunofluorescence, high-content cytometry, 24 h; AID 624263; hit rate 0.2% among 410,000; active = well fitted activation curve with a large enough effect; inconclusive = small, poorly fitted or top-dose-only effect; inactive = flat fitted curve, though single readings scatter; cell line not stated here;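 note: potency is the fitted concentration of half-maximal effect; % of control where 0% means no effect; nearly all actives have a fitted effect of over 65% in size; a mitochondrial uncoupler was the plate control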
#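 Stable cell line, 250 cells/well, 12 h attachment; compounds pinned at 5 concentrations, 24 h; CCCP control. Fixed with nuclear dye, primary antibodies 12 h at 10 degrees C, secondary plus cell stain; laser-scanning cytometer read.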
# Menin MLL FP FL – inhibitors of human menin-MLL interaction, wild-type MLL peptide | Fluorescence polarization, fluorescein-MLL peptide displacement from menin | FP activity change, % at 61.4 µM | 290,000 tested, under 10 active | AID 1766; inconclusive = falling polarisation curve, or a change in total fluorescence; inactive = total fluorescence flat and polarisation flat or rising; no compound was filed as active; the % refers to the polarisation; negative = inhibition;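 note: % of control where 0% means no effect; inhibitors lower the polarisation; unlabelled MLL peptide was the positive control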
# gsp antag – antagonizes gsp, the McCune-Albright syndrome mutation; hit rate 0.4% among 340,000; AID 624288; gsp-mutant cells, cAMP HTRF, 30 min; control for the full effect not named in the record; Potency, µM (titrated, usually from 76.9 µM), without a hit: at the top dose activity change, negative = inhibition, most hits filed as inhibitors; active = falling curve of any shape with a large fitted effect; inconclusive = falling curve, mostly with a smaller effect; inactive = flat or rising curve; cell line not stated here;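 note: intracellular cAMP measured with PDE inhibitor Ro 20-1724 present during compound exposure; potency is the fitted concentration of half-maximal effect; % is set by controls: 0 for no effect and ±100 for the full control effect; nearly all actives have a fitted effect of over 65% in size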
#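 HTRF cAMP read-out (cAMP-d2 plus anti-cAMP antibody-K in lysis buffer, 30 min RT). Before lysis, cells are exposed to compounds with […] for 30 min at 37C in DPBS containing Ca/Mg, BSA and Tween 20.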
# ClpP mod – qHTS Assay for Activators of ClpP. AID 651965, 2013. Potency, µM (doses to about 57.5 µM), without a hit: at the highest dose activity change, negative = active. purified B. subtilis ClpP, FRET peptide cleavage, 20 min. hit rate 1.9% among 340,000; active = well fitted falling curve with a large enough effect; inconclusive = small, poorly fitted or top-dose-only effect; inactive = no such curve, though single readings can be large or run the other way; note: potency is the fitted concentration of half-maximal effect; the source files actives as falling curves though it sought activators and does not explain the sign; nearly all actives have a fitted effect of over 65% in size; many hits overshoot -100%
# Target sequence (P80244 whole entry, looked up): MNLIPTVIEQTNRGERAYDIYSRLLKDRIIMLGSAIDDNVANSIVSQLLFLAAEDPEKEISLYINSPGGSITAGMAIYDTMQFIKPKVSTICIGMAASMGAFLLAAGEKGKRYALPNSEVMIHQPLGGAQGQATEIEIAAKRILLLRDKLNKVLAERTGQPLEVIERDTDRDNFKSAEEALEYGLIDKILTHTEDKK
#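 FRET quenching reversal measured ClpP activation: 10 microg/mL B. subtilis ClpP at pH 8 with the FRET-FV decapeptide, read at 430 nm after 320 nm excitation. The 20-min minus 0-min signal was scaled between DMSO/no-enzyme wells and ADEP (5.8 microM final).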
# D2 agonist – agonists of human D2 dopamine receptor (beta-arrestin) | DiscoveRx PathHunter D2 beta-arrestin, luminescence, 90 min; 100% = 57 uM dopamine signal | activation, % (test concentration not listed) | hit rate 0.084% among 360,000 | AID 624465; in the data active = activation above about 40%; inconclusive = about 15% to 40%; inactive = below about 15%; note: compound concentration not given in the record; the text of the record calls up to 30% inactive
# Target sequence (P14416 whole entry, looked up): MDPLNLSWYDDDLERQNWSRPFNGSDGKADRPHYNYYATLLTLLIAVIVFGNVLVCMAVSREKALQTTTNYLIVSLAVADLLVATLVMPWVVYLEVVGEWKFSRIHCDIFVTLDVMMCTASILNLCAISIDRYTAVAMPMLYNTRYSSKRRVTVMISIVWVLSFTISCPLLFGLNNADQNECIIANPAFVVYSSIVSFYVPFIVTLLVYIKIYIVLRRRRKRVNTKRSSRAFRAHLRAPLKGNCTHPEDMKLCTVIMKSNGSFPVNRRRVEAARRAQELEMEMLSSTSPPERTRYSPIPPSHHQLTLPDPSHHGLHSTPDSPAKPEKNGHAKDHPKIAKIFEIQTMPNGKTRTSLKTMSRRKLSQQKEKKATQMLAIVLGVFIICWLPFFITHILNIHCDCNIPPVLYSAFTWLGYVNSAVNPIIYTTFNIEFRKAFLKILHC
#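 Agonist mode: compounds alone added to overnight-plated D2 PathHunter cells for 90 min at 37 C, with 57 uM final dopamine (EC100) defining full response. Beta-arrestin recruitment detected by chemiluminescent reagent, read after 1 h at ambient temperature.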
# gsp ag – activates gsp, the McCune-Albright syndrome mutation; gsp mutant cells, cAMP HTRF, 30 min; control for the full effect not named in the record; Potency, µM (titrated, usually from 76.9 µM), without a hit: at the highest dose activation (cAMP increase), hits mostly activators; hit rate 0.13% among 340,000; AID 624287; active = well fitted activation curve with a large enough effect; inconclusive = small, poorly fitted or top-dose-only effect, or another doubt; inactive = no such curve, though single readings can be large or run the other way; cell line not stated here;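 note: phosphodiesterase inhibitor Ro 20-1724 added with compounds to block cAMP breakdown; potency is the fitted concentration of half-maximal effect; nearly all actives have a fitted effect of over 60% in size; about a fifth of the inactives were tested at one dose only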
#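 Cells in DMEM/10% FBS with G418 were pretreated with compounds in DMSO plus […] (300 uM stock) for 30 min at 37C. cAMP was measured by HTRF (cAMP-d2 plus anti-cAMP antibody-K) after 30 min at room temperature.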
# Sfp inh – blocks B. subtilis Sfp PPTase activity; Q9F4F7; Biochemical Sfp PPTase activity, qHTS; Potency, µM, without a hit: max response, negative = inhibition, hits mostly inhibitors; hit rate 3.5% among 310,000; active = well fitted inhibition curve with a large enough effect; inconclusive = small, poorly fitted or top-dose-only effect, or another doubt; inactive = no such curve, though single readings can be large or run the other way;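 note: the enzyme is Sfp with the accession as filed and its product quenches rhodamine fluorescence; potency is the fitted concentration of half-maximal effect; 0% = enzyme reaction without inhibitor and -100% = no enzyme wells; top concentration of the series not given in the record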
#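 Step 1, compound plus 15 nM Sfp-PPTase, 15 min, room temperature. Step 2, add rhodamine-CoA (5 uM) and BHQ-2-YbbR (12.5 uM). Step 3, read 525/598 nm fluorescence at 0 and 30 min.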
# An asterisk follows results filed as active; ? = inconclusive; / = no result given; & = joins results of further samples; [ ] = another dose, or the depositor's remark.
SMILES,PINK1 expr mod,Menin MLL FP FL,gsp antag,ClpP mod,D2 agonist,gsp ag,Sfp inh
O=C(COC(=O)c1ccc(Sc2ccccc2)c([N+](=O)[O-])c1)NC1CCS(=O)(=O)C1 (configuration not stated),-1.9%,4.9,-3%,1.2%,-0.7,?,0%
CCN1CCN(c2ccc(S(=O)(=O)N3CCCCC3)cc2NC(=O)Cc2ccc(Cl)c(Cl)c2)CC1,-8.2%,/,-2%,-1.1%,12,-6%,/
CN(CCO)C1=NS(=O)(=O)c2cc([N+](=O)[O-])ccc21,-0.1%,1.8,6%,/,?,-5%,-1%
C#CCN(N(C)c1ncc(C(F)(F)F)cc1Cl)S(=O)(=O)c1ccc2ccccc2c1,-0.4%,1.0,-1%,-3.0%,-1.4,-22%,26%
Cc1ccccc1Cn1c(=N)n(CC(O)c2ccco2)c2ccccc21 (configuration not stated),0.0%,0.5,-8%,-3.3%,-5.5,-9%,5%
Cn1c(CCCOc2ccc(Cl)cc2Cl)nnc1SCC(=O)Nc1ccc(F)c(Cl)c1,8.6%,3.2,-6%,-10%,5.1,8%,28%
CCn1c(=O)c2sccc2n(CC(=O)NCCC2=CCCCC2)c1=O,4.9%,1.0,-52%,/,0.4,16%[15.4 µM],8%
CC(C)(C)C1(c2ccccc2)NC(=O)N(CC(=O)N2CCOCC2)C1=O (configuration not stated),/,1.2,3%,3.5%,1.9,-20%,15%
COCCNC(=S)N1CCC(c2nc(-c3ccc(F)cc3)no2)CC1,0.6%,-7.4,-6%,/,0.7,-1%,7%
Cc1nnc(NC(=O)CSc2nnc3ncccn23)s1,2.2%,-1.8,7%,/,0.8,?,-7%
COc1ccccc1N(CC(=O)NC1CC2CCC1C2)S(=O)(=O)c1ccc(C)cc1 (configuration not stated),1.9%,/,-18%,-2.9%,-4.2,-14%,1%
O=S(=O)(NCCCSc1ccccc1)c1ccccc1F,-0.9%,0.0,-6%,/,0.3,-74%[inhibitor],-15%
COCCNS(=O)(=O)c1ccccc1,26%[38.3 µM],2.7,11%,0.5%,-4.0,11%,13%
COc1cc(NC(=O)CCNS(=O)(=O)c2ccc3c(c2)CCC(=O)N3)cc(OC)c1,-0.6%,3.3,8%,4.7%,-5.0,-29%,-3%
Cc1ccc(S(=O)(=O)NC(C(=O)Oc2cc3oc(=O)cc(C)c3cc2Cl)C(C)C)cc1 (configuration not stated),2.5%,2.4,-15%,-1.1%,-2.9,0%[15.4 µM],3%
O=C(NCc1cccs1)c1nc2c(nnn2Cc2ccccc2Cl)c(=O)[nH]1,-1.7%,4.0,-15%,-1.1%,-4.0,-9%,-8%
CN(C(=O)COC(=O)c1cc(=O)[nH]c2ccccc12)C1CCCCC1,0.7%,/,4%,?,-3.4,-2%,/
CN(Cc1ccccc1)S(=O)(=O)c1ccc(NS(=O)(=O)Cc2ccccc2)cc1,15%[38.3 µM],1.5,?,2.7%,0.2,3%,11%
Cc1cc(N2CCN(C(=O)c3ccco3)CC2)n2nc(C)c(-c3ccccc3)c2n1,5.5%,-0.3,2%,32%,-0.6,-31%,-14%
CCCN(CC(=O)Nc1ccccc1C)C(=O)COC(=O)c1cnc(C)cn1,2.6%,/,6%,/,-3.8,-11%[15.4 µM],/
C[C@H](CO)N1C[C@H](C)[C@@H](CN(C)C(=O)OCc2ccccc2)OCc2cn(nn2)CCCC1=O,2.3%,/,/,0.8%,-11,-1%,/
[N-]=[N+]=NCC/C=C\C1NS(=O)(=O)OCC1O (configuration not stated),-0.7%,-1.3,11%,-0.2%,-3.8,-21%,5%
C=CCOc1ccc(C2C(C(=O)c3ccco3)=C(O)C(=O)N2Cc2cccnc2)cc1 (configuration not stated),1.3%,2.5,14%,2.3%,0.8,28µM*,-21%
CCCn1c(O)c2ccc(C(=O)N=NC(=O)c3cccnc3)cc2c1O,0.7%,0.4,5%,0.5%,-4.3,0%,9%
COCCn1c(SCC(=O)N2CCN(c3ccccc3)CC2)nc2c(c1=O)SC(C)C2 (configuration not stated),-0.6%,-0.1,-15%,-1.3%,-1.5,-35%,-3%
CC(C(=O)Nc1cccc([N+](=O)[O-])c1)n1nnc2ccccc21 (configuration not stated),0.6%,-1.8,-9%,-0.3%,-1.1,2%,22%
COc1cccc(C(=O)O[C@H]2[C@H](C)NS(=O)(=O)[C@H]3C[C@@H]4C=C[C@]23O4)c1,-1.5%,/,4%,-14%&-18%,-3.8,/,/
CCCCCOc1ccc(C2NC(=O)NC2=O)cc1 (configuration not stated),0.0%,0.6,9%,1.5%,-12,11%,0%
NS(=O)(=O)c1ccc(NC(CNS(=O)(=O)c2ccccc2)c2ccccc2)cc1 (configuration not stated),-0.3%,-1.3,5%,1.5%,-1.1,-43%[inhibitor],29%
CC(C)(C)c1cccc(OCCCSc2ncccn2)c1,6.3%,-3.7,-4%,1.4%,3.4,-48%[inhibitor],0%
O=C(CCCOc1ccc(Cl)cc1Cl)NNC(=O)C1CCC1,1.3%,-0.9,-7%,0.1%,-3.1,?,4%
COc1ccc(/C=C/C(=O)c2oc3ccc(F)cc3c2C)cc1,20%,4.2,6%,-3.8%,-1.1,3%,-15%
Cc1ccc2nc(C(=O)O)c(C(=O)O)nc2c1,6.8%[38.3 µM],-1.5,8%,-1.6%,-2.1,-31%[inhibitor],-5%
Cc1cccc(C(=O)NNC(=O)C(=O)NC(C)(C)C)c1,-1.0%,1.7,16%,-0.3%,-2.5,-15%,-4%
O=C(O)c1c2c(nc3ccc(F)cc13)CCC2,3.1%[38.3 µM],0.4,3%,-1.2%,-0.9,15%,10%
Cc1ccc(C(C)NC(=O)c2cc3ccccc3oc2=O)cc1C (configuration not stated),7.7%,-0.4,0%,?,-3.1,-25%,8%
Cc1nc(N2CCN(C)CC2)c2sc(=S)n(-c3ccccc3)c2n1,1.5%,0.7,-3%,-2.1%,-1.0,-56%[inhibitor],-12%
Cc1ccc(NC(=O)C(=O)NCCOc2ccc(Cl)cc2)c(C)c1,12%,1.5,15%,11%,-3.2,-6%,1%
Cc1ccc(C)c(C(=O)CSc2n[nH]c(C)n2)c1,6.3%,1.8,17%,-1.2%,-3.0,-7%,79µM*
C=CCC(C#Cc1ccccc1)[N+](C)(C)CC=C (configuration not stated),-3.2%,-0.8,3%,-4.2%,0.9,-9%,5%
CCOC(=O)C1(C)C=C(Nc2ccc(OC)cc2)C(=O)N1c1ccc(OC)cc1 (configuration not stated),-0.3%,0.8,2%,6.5%,-2.6,-10%,-3%
O=C(c1ccc(F)cc1)C1CCN(C(=O)Nc2ccc(F)cc2)CC1,1.1%,-0.6,-13%,0.5%,-0.5,-18%,2%
S=c1nc(-c2ccc(Br)cc2)oc2c1CCCC2,2.6%,1.0,?,-19%,-5.4,-4%[15.4 µM],-16%
CCN1CCN(Cc2ccc(NC(=O)Nc3cccs3)cc2)CC1,-0.2%,-1.1,-5%,4.0%,0.0,-1%,-17%
O=C(NCCN1CCOCC1)c1ccc(/C=C2\Sc3ccccc3N(Cc3ccccc3F)C2=O)cc1,1.2%,0.2,-22%,-5.7%,-1.6,?,-19%
Nc1c(Cl)ncnc1N1CCOCC1,-3.4%[38.3 µM],4.5,3%,0.9%,2.4,18%,5%
COc1ccc(-n2nc3c(c2NC(=O)COc2ccccc2F)CS(=O)(=O)C3)cc1,-2.8%,/,2%,1.2%,-4.4,?,16%
CCOC(=O)C1=CN(Cc2cccc(-c3ccc(F)cc3)c2)S(=O)(=O)N(C)C1C (configuration not stated),2.7%,/,-1%,-21%,0.6,/,/
COc1ccc(OC)c(NC(=O)NCCc2c[nH]c3ccccc23)c1,-1.6%,-0.5,-15%,-2.1%,-2.7,18%,6%
COc1ccc(C(=O)CSc2nnc(CNC(=O)c3ccccc3)n2C)cc1,-0.7%,/,5%,-0.8%,0.0,-8%,3%
CC(C)OCCCNS(=O)(=O)c1ccc2ccccc2c1,-0.6%[38.3 µM],-1.2,-27%,-0.3%,0.3,?,15%
CCC(C(=O)N1CCCCCC1)n1nc(C)n2c(cc3occc32)c1=O (configuration not stated),2.5%,-0.6,-4%,-8.1%,0.8,-26%,8%
Cc1nnc(NC(=O)CSc2ccc3nnc(-c4ccccn4)n3n2)s1,1.5%,0.4,11%,-29%,-6.4,?,-2%
CN(C(=O)COC(=O)/C=C/c1cccc([N+](=O)[O-])c1)C1CCS(=O)(=O)C1 (configuration not stated),-0.1%,2.0,8%,/,1.3,10%[15.4 µM],8%
Cc1ccc(Cc2nc3ccccc3[nH]2)cc1,0.4%,-1.4,-8%,-4.2%,1.1,14%[15.4 µM],2%
CC(=O)Nc1ccc(Oc2cc(N)cc([N+](=O)[O-])c2)cc1,1.0%,0.2,2%,-1.4%,-3.6,-19%,-6%
CCOc1ccc(C(=O)Nc2ccc(-c3cc4ccccc4oc3=O)c(C)c2)cc1[N+](=O)[O-],2.0%,-1.7,-1%,?,1.1,10%,-8%
COc1ccc(C(=O)NC2CCN(C(=S)Nc3ccc(C)c(C)c3)CC2)cc1,-1.4%,6.7,-5%,0.6%,0.1,-27%,9%
O=C(CCN1CCN(c2ccccc2)CC1)N/N=C/c1ccccc1OC(F)F,3.2%,0.2,-13%,/,?,-25%,11%
CCCc1cc(=O)[nH]c(SCC(=O)N2C(C)CCCC2C)n1 (configuration not stated),2.7%,1.5,3%,/,4.2,-1%,20%
CN1CCc2c(sc(NC(=O)C3COc4ccccc4O3)c2C(N)=O)C1 (configuration not stated),2.0%,-4.7,12%,-4.3%,-5.1,-33%[inhibitor],-7%

# Single values from the results shown.
# Entry of COc1ccc(OC)c(NC(=O)NCCc2c[nH]c3ccccc23)c1 under Menin MLL FP FL: -0.5
# Entry of O=C(CCN1CCN(c2ccccc2)CC1)N/N=C/c1ccccc1OC(F)F under gsp ag: -25%
